gsp agonist: agonists of gsp mutant (McCune-Albright syndrome). gsp mutant cells, cAMP HTRF, 30 min; control for the full effect not named in the record. Potency, µM (top dose mostly 76.9 µM), for inactives: at the highest dose activation (cAMP increase), most hits filed as activators. actives 0.13% (n = 340,000); active = well fitted activation curve with a large enough effect; inconclusive = small, poorly fitted or top-dose-only effect, or another doubt; inactive = no such curve, though single readings can be large or run the other way; cell line not stated here;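 further: phosphodiesterase inhibitor Ro 20-1724 added with compounds to block cAMP breakdown; potency means the concentration at half of the fitted maximal effect; nearly all actives have a fitted effect of over 60% in size; about a fifth of the inactives were tested at one dose only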
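Cells stably selected in G418 were plated at 2000/well, grown 16-24 hr, then given compounds in DMSO with the PDE inhibitor […] (300 uM solution added) for 30 min at 37C; cAMP was read by HTRF.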
ClpP mod: qHTS Assay for Activators of ClpP; purified B. subtilis ClpP, FRET peptide cleavage, 20 min; Potency, µM (series often up to 57.5 µM), inactives show at the top dose activity change, negative = active; actives 1.9% (n = 340,000); active = well fitted falling curve with a large enough effect; inconclusive = small, poorly fitted or top-dose-only effect; inactive = no such curve, though single readings can be large or run the other way; further: potency means the concentration at half of the fitted maximal effect; the source files actives as falling curves though it sought activators and does not explain the sign; nearly all actives have a fitted effect of over 65% in size; many hits overshoot -100%
Target sequence (P80244 whole entry, looked up): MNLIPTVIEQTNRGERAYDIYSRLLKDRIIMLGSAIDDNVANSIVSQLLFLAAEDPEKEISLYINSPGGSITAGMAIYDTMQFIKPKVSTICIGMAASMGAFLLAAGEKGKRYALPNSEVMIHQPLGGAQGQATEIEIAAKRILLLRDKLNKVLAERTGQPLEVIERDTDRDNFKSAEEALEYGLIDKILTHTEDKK
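ClpP 10 microg/mL final, pH 8 Tris/KCl buffer with BSA, glycerol, Tween-20; compound pinned in; FRET-FV substrate; RT 20 min; Ex320/Em430; ΔFRET vs ADEP 5.8 microM, DMSO, no enzyme.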
D2 ag: activates the human D2 dopamine receptor; P14416; DiscoveRx PathHunter D2 beta-arrestin, luminescence, 90 min; 100% = 57 uM dopamine signal; activation, % (test concentration not listed); actives 0.084% (n = 360,000); AID 624465; in the data active = activation above about 40%; inconclusive = about 15% to 40%; inactive = below about 15%; further: compound concentration not given in the record; the text of the record calls up to 30% inactive
Target sequence (P14416 whole entry, looked up): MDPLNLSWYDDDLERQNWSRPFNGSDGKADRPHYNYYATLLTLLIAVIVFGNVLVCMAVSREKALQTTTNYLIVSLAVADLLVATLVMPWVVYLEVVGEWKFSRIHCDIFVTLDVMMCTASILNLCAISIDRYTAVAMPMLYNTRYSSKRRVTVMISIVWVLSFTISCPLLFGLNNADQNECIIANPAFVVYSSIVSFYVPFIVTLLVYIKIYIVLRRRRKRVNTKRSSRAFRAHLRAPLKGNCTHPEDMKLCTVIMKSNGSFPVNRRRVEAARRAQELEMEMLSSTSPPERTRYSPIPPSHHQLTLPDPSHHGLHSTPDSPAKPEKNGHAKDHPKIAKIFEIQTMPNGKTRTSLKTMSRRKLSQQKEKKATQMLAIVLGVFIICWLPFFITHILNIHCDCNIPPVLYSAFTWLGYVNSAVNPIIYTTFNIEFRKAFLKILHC
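DiscoveRx PathHunter D2 beta-arrestin cells (2,100/well) attached overnight, then compound-stimulated 90 min at 37 C in HBSS/10 mM HEPES/0.1% Tween-20 buffer; beta-galactosidase complementation read by luminescence after 1 h at ambient temperature. Dopamine 57 uM final (EC100) as control.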
Sfp PPTase inh: Sfp phosphopantetheinyl transferase inhibition | Biochemical Sfp PPTase activity, qHTS | Potency, µM, without a hit: max response, negative = inhibition, usual class: inhibitors | actives 3.5% (n = 310,000); active means well fitted inhibition curve with a large enough effect; inconclusive means small, poorly fitted or top-dose-only effect, or another doubt; inactive means no such curve, though single readings can be large or run the other way;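 further: the enzyme is Sfp with the accession as filed and its product quenches rhodamine fluorescence; potency means the concentration at half of the fitted maximal effect; 0% = enzyme reaction without inhibitor and -100% = no enzyme wells; top concentration of the series not given in the record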
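With Hepes-Na pH 7.6 buffer containing 10 mM MgCl2, Sfp (15 nM) modified BHQ-2-YbbR (12.5 uM) using rhodamine-CoA (5 uM). Two reads 30 minutes apart at 525/598 nm yielded each well's rate.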
gsp antag: antagonists of gsp mutant (McCune-Albright syndrome). gsp-mutant cells, cAMP HTRF, 30 min; control for the full effect not named in the record. Potency, µM (highest dose often 76.9 µM), for inactives: at the highest dose activity change, negative = inhibition, hits mostly inhibitors. actives 0.4% (n = 340,000). AID 624288; active = falling curve of any shape with a large fitted effect; inconclusive = falling curve, mostly with a smaller effect; inactive = flat or rising curve; cell line not stated here;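 further: intracellular cAMP measured with PDE inhibitor Ro 20-1724 present during compound exposure; potency means the concentration at half of the fitted maximal effect; on the % scale 0 is the no-effect control and ±100 the full control effect; nearly all actives have a fitted effect of over 65% in size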
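Cells in G418 medium, seeded 16-24 h, 37C; buffer exchange to DPBS + 1 mM CaCl2, 0.5 mM MgCl2, 0.05% BSA; cpds in DMSO + […] (300 uM stock), 30 min 37C; HTRF cAMP detection.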
PINK1 expr mod: changes PINK1 expression; PINK1 immunofluorescence, high-content cytometry, 24 h; Potency, µM (titrated, usually from 76.6 µM), without a hit: top-dose activation (PINK1 increase), actives largely listed as activators; actives 0.2% (n = 410,000); active = well fitted activation curve with a large enough effect; inconclusive = small, poorly fitted or top-dose-only effect; inactive = flat fitted curve, though single readings scatter; cell line not stated here;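 further: potency means the concentration at half of the fitted maximal effect; % of control where 0% means no effect; nearly all actives have a fitted effect of over 65% in size; a mitochondrial uncoupler was the plate control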
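Decision-based qHTS: stable cells, 24 h exposure to five compound concentrations, CCCP as control. Fixed cells stained for PINK1 plus nuclear, mitochondrial and cell markers, cytometer read.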
Menin MLL FP FL: menin-MLL binding inhibition, fluorescein peptide; Fluorescence polarization, fluorescein-MLL peptide displacement from menin; FP activity change, % at 61.4 µM; 290,000 tested, under 10 active; inconclusive = falling polarisation curve, or a change in total fluorescence; inactive = total fluorescence flat and polarisation flat or rising; no compound was filed as active; the % refers to the polarisation; negative = inhibition;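 further: % of control where 0% means no effect; inhibitors lower the polarisation; unlabelled MLL peptide was the positive control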
Numbers without * were called inactive; u = inconclusive; x = not tested or not shown; [ ] = another dose, or the depositor's remark.

molecule,D2 ag,PINK1 expr mod,gsp agonist,Sfp PPTase inh,ClpP mod,gsp antag,Menin MLL FP FL
O=C1C(C2=NC(C(=O)O)C3C(=O)N(c4ccccc4)C(=O)C23)=C(O)c2ccccc21 (stereo unspecified),-3.1,4.3%,3%,9%,0.2%,6%,2.8
CCOC(=O)Cn1cc(C(=O)C(=O)N2CCOCC2)c2ccccc21,0.8,-0.3%,-2%,-1%,-0.5%,0%,x
Cc1ccc(C(=O)NCC(=O)OCC(=O)Nc2cccc(S(=O)(=O)N3CCCC3)c2)cc1C,-1.6,2.6%,-11%,11%,1.4%,-9%,1.1
O=c1c(-n2cncn2)c[nH]n1-c1cccc(Cl)n1,2.8,3.0%,14%,56µM*,x,-4%,0.0
C=CCn1c(-c2ccc(OC)cc2)nc2ccccc21,-2.8,3.2%,18%,18%,u,-1%,0.7
O=C(NCc1ccco1)/C(=C/c1ccc(F)cc1)NC(=O)c1ccccc1,1.6,2.4%,2%,23%,x,7%,2.3
CSc1ccc(/C=C/C(=O)c2c(O)cc(C)oc2=O)cc1,6.3,-1.3%,-71%[inhibitor],13%,x,-20%,10
CCOC(=O)c1c(CC(C)C)csc1/N=C/C1=C(O)CCCC1=O,3.3,u,-2%,-19%,-0.7%,-18%,u
CN(C(=O)CSc1nnc2ccccn12)C1CCS(=O)(=O)C1 (stereo unspecified),1.2,3.4%,-25%,-3%,u,8%,-0.1
OCC1(Cc2ccccc2)CCN(Cc2cnc(-c3ccc(Cl)cc3)nc2)CC1,-0.1,8.6%,1%[15.4 µM],-11%,x,u,-0.7
Cc1cc(C)c(C)c(S(=O)(=O)N2CCC(C(=O)NCc3cccs3)CC2)c1C,0.5,-0.9%,23%,x,-0.6%,x,x
CC(=O)Oc1oc(-c2ccccc2)nc1C=Nc1ccccc1,-5.9,8.0%,1%,-17%,-3.6%,14%,5.6
CCNC(=O)C1Cc2cc(S(=O)(=O)N3CCCC3)ccc2N1C(C)=O (stereo unspecified),-3.4,0.7%,25%,31%[activator],0.0%,-2%,0.4
CNS(=O)(=O)c1ccc(NC(=O)C2c3ccccc3Oc3ccccc32)cc1,-0.4,u,26%,25%,1.3%,8%,x
Cc1ccc2onc(CC(=O)O)c2c1,-4.1,2.0%,14%,-15%,-1.1%,8%,-6.0
CCOc1ccccc1NC(=O)CCCn1cc([N+](=O)[O-])cn1,-1.5,1.7%,0%,u,x,7%,0.9
O=S(=O)(c1ccc(F)cc1)N1CCC2(CC1)OCCN2S(=O)(=O)c1cccs1,-2.3,-1.5%,17%[15.4 µM],x,x,0%,x
O=C(OCc1ccc(F)cc1)c1cccnc1Cl,-2.4,-0.9%,-1%[15.4 µM],23%,x,0%,-1.6
COc1ccc(/C(N)=N/OC(=O)CN(C)S(=O)(=O)c2ccccc2)cc1,-0.5,2.4%,-6%[15.4 µM],-5%,x,-6%,1.2
CCOC(=O)C(NC(=O)Nc1ccc(Cl)cn1)(Oc1ccc(F)cc1)C(F)(F)F (stereo unspecified),-0.8,-1.6%,-14%[15.4 µM],11%,0.8%,16%,-1.2
CCc1nnc(NC(=O)CSc2nnc(-c3ccco3)o2)s1,-2.8,-1.5%,-8%[15.4 µM],15%,x,2%,-0.7
COc1cc(C(=O)Oc2cc(N)n(S(=O)(=O)c3ccc(F)cc3)n2)cc(OC)c1OC,-5.8,7.7%,17%[15.4 µM],16%,-1.1%,-16%,3.8
CC1(C)CC(=O)C(C=Nc2ccc(N)cc2)=C(O)C1,-1.7,4.5%,17%,1%,0.4%,-5%,0.4
CCN(CC)Cc1c(O)ccc2c(=O)c(-c3ccc(Cl)cc3)coc12,-5.6,-0.9%,24%,10%,3.9%,-7%,1.7
COc1ccc(/C=N/OCC(=O)Nc2cc(C)on2)cc1OC,-1.9,2.2%,u,15%,0.1%,-9%,6.9
Cc1ccc(C2(c3ccc(C)cc3)CC2C(=O)Nc2ccc([N+](=O)[O-])cc2O)cc1 (stereo unspecified),-3.2,u,-23%,19%,1.3%,u,2.5
O=C(NCC(O)c1ccc([N+](=O)[O-])cc1)C(c1ccccc1)c1ccccc1 (stereo unspecified),2.7,1.7%,-1%,7%,x,1%,2.1
CCN(CC(=O)NCc1ccc(F)cc1)C(=O)CN1CCN(c2cc(Cl)ccc2C)CC1,-6.5,-0.3%,-6%[15.4 µM],4%,x,x,4.7
CC(=O)c1cccc(NC(=O)CCC2CCCC2)c1,-3.7,1.9%,7%,11%,-4.0%,-1%,5.0
CCCCn1nc2cc(C(=O)NCCCCc3ccccc3)ccc2c1OCC,-5.5,6.0%,-22%,14%,4.1%,0%,0.6
CCC(=O)N1c2ccc(C)cc2C2=NNC(=S)NC21O (stereo unspecified),1.9,1.3%,6%[15.4 µM],13%,3.3%,8%,-0.9
Cc1oc(-c2cccc(Cl)c2)nc1CN1CCC(C(=O)NCc2cccnc2)CC1,-0.4,-2.2%,4%,4%,-2.4%,1%,0.8
COc1ccc(/C=N/NC(=O)c2ccccc2O)cc1CSc1ccccn1,-7.5,7.7%,-1%,-8%,-6.4%,-30%,5.6
O=C(C[C@H]1C[C@H](C(=O)N2CCCCC2)[C@@]2(CCc3ccccc3)c3[nH]c4ccc(Cl)cc4c3CCN2C1=O)NCCC1=CCCCC1,0.0,-0.8%,x,x,0.4%,4%,x
O=C(CCSc1nnc(-c2ccncc2)o1)Nc1cccc(Cl)c1,1.4,0.2%,22%[15.4 µM],13%,x,-56%,2.7
FC(F)(F)c1cc(-c2ccc3c(c2)OCO3)nc(NCc2ccco2)n1,-4.0,13%,u,-5%,25µM*,13%,1.1
CSCCOC(=O)C1=C(C)Nc2ccc(C)cc2S1,0.9,1.0%,-36%[inhibitor],50µM*,0.7%,1%,4.6
O=C(COC(=O)c1ccccc1Nc1ccc(SC(F)F)cc1)NCc1ccco1,-3.1,-0.9%,3%,-8%,-16%,u,2.7
Cc1ccc(S(=O)(=O)NCCSc2nnnn2C)cc1,-1.2,0.0%[38.3 µM],-15%,26%,1.7%,-6%,4.4
CC(=O)c1ccccc1NC(=O)CN1C(=O)CS/C1=C\c1nc(-c2ccc(C)cc2)cs1,-3.3,-1.1%,2%[15.4 µM],10%,x,10%,1.4
O=C(NCc1cccc(CNC(=O)C(=O)NCc2ccco2)c1)C(=O)NCc1ccco1,0.1,11%,u,-14%,2.1%,3%,6.7
COC(=O)CSC1=C(C#N)C(c2ccc3c(c2)OCO3)C2=C(CCCC2=O)N1 (stereo unspecified),-0.3,4.3%,32%,u,2.1%,3%,2.0
CC(=O)c1sc(NCCOc2ccc(C)cc2)nc1C,-3.9,3.0%,-52%[inhibitor],-17%,0.8%,3%,4.0
Cc1c(N=c2scc(-c3ccccc3)n2C)c(=O)n(-c2ccccc2)n1C,u,-1.0%,-10%,-1%,0.6%,3%,-6.1
CCOc1ccccc1NC(=O)CSc1nc(=O)n(Cc2ccncc2)c2c1CCC2,-2.4,-1.2%,-2%,x,-1.6%,-18%,x
CCOc1ccc(C2C(C(=O)c3ccco3)=C(O)C(=O)N2CCCn2ccnc2)cc1 (stereo unspecified),-1.1,-0.1%,21%,5%,1.1%,7%,5.4
O=C(CSc1nnc2ccccn12)NNC(=O)c1ccc(Br)cc1,2.1,-1.3%,17%,9%,x,5%,-2.8
N/C(=N\OC(=O)N1c2ccccc2Sc2ccccc21)c1ccccc1,4.9,0.3%,u,-14%,-2.8%,-26%,2.9
O=C(CSc1ncnc2c(-c3ccc(Cl)cc3)nsc12)c1ccccc1,-1.8,2.3%[38.3 µM],-2%,12%,-0.5%,-8%,4.6
O=C(COc1ccccc1Br)N1CCNC1=O,0.9,1.0%,8%,x,0.8%,7%,x
COc1ccc(OC)c(S(=O)(=O)Nc2ccc(C(N)=O)cc2)c1,-1.6,x,-1%,18%,-5.6%,1%,1.7
COc1cc2cnc(-c3ccsc3)c(-c3ccc(F)cc3)c2cc1OC,-2.2,2.4%,x,x,-13%,-11%,x
CC1(C)Cc2c(c(N3CCCC3)nc3sc4c(N5CCNCC5)ncnc4c23)CO1,-4.9,0.8%,17%,-13%,-16%,11%,0.7
COc1ccc2c(CN3CCN(c4ccccc4F)CC3)cc(=O)oc2c1,3.8,1.2%,x,x,-9.5%,x,x
COc1ccc(-c2cccc(NC(=O)COc3ccc(Cl)cc3)c2)nn1,3.5,-0.7%,12%,-3%,-1.2%,-26%,-4.3
Cc1cc(=O)oc2cc(OCC(=O)N3CC(C)OC(C)C3)ccc12 (stereo unspecified),-4.9,-3.3%,-3%,7%,u,4%,-0.3
CCCCC(=O)NC(=S)NNC(=O)CC#N,-0.7,u,1%,10µM*,-1.6%,4%,3.9
CCc1ccccc1NC(=O)Nc1cccn(Cc2ccccc2F)c1=O,-4.6,-1.0%,0%,4%,4.1%,-17%,0.5
CC1CCCN(C(=O)c2ccc(-c3ccccc3Cl)o2)C1 (stereo unspecified),-4.1,10%,-6%[15.4 µM],x,x,-5%,x
c1ccc(COc2cccc(CNn3cnnc3)c2)cc1,-3.1,x,-32%[inhibitor],7%,-7.5%,10%,2.3

More entries.
molecule,D2 ag,PINK1 expr mod,gsp agonist,Sfp PPTase inh,ClpP mod,gsp antag,Menin MLL FP FL
CCCCC(C(=O)O)C(C)CC(=O)NNC(=O)c1ccco1 (stereo unspecified),0.9,0.0%,18%[15.4 µM],11%,x,-4%,0.0
O=[N+]([O-])c1ccc2c(c1)oc1ccccc12,-4.3,1.4%,u,14%,1.2%,19%,5.3
CCS(=O)(=O)N1CCC(C(=O)Oc2ccccc2Cl)CC1,2.5,0.2%,-22%,16%,0.2%,-8%,1.8
O=S(=O)(c1ccc2c(c1)nc1n2CCC1)N1CCOCC1,-1.8,5.8%,u,5%,0.4%,8%,3.2
